Bioassay records from PubChem BioAssay.
RanGTP-Impb inh: disruptors of Ran-importin-beta complex formation – biochemical, FRET, CFP-Ran, YFP-importin-beta, homogeneous, primary screen; cell-free CFP-Ran/YFP-importin-beta FRET ratio; inhibition, % (concentration not given with the values); 300,000 tested, 1.1% active; AID 2216;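 active = most replicates above 15%; inconclusive = exactly half above 15%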;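 note: 0% = DMSO wells and 100% = Ran loaded with GDP instead of GTP; wells of about 40 µL received 100 nL stock; the first replicate is given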
Vif A3G: HIV-1 Vif–A3G interaction blockers – biochemical, TR-FRET, GST-Vif 1-94, biotin-A3G peptide, dose response retest, primary screen (AID 1117319) | inhibition, %, or IC50 in µM where a hit was titrated | TR-FRET GST-Vif / biotin-A3G peptide binding; higher % means a stronger effect; test concentration not given here; strong numbers were not always called active | 260,000 tested, 0.57% active;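 active = above the screen mean plus three standard deviations and confirmed in dose response; inconclusive = results disagree or hit not tested in dose response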;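 note: Vif residues 1-94 fused to GST binding biotinylated APOBEC3G peptide 110-148; 0% = full assay without inhibitor and 100% = GST in place of GST-Vif; retest series ran down from 100 µM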
Beta apoptosis: beta cell apoptosis inhibition; INS-1E cytokine-induced death, ATP luminescence, 48 h; percent of positive-control rescue, neutral wells zero; protection from apoptosis, % (no concentration beside the values); 300,000 tested, 0.8% active; AID 435005;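 active = all replicates at 75% or more, or half of them and the mean; inconclusive = half reach 75% but not the mean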;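 note: 0% = cytokine-treated negative control wells and 100% = positive control rescue; higher means more ATP so stronger rescue from cytokine killing; wells of about 40 µL received 100 nL stock; the first replicate is given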
AF4-AF9 inh: MLL-AF4/AF9 protein interaction inhibition; P42568; AlphaScreen, biotin-AF4 peptide binding to FLAG-AF9; inhibition, % at 10 µM; 350,000 tested, 0.47% active;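 active = every replicate reaching a set inhibition limit, whatever the replicate mean, cut at about 25% in these data; inconclusive = mean inhibition reaches that limit but some replicates miss it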;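 note: 0% = plate neutral control median and 100% = total signal loss; the record names both 10 and 1 µM as test concentration; the first replicate is given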
Target sequence (P42568 whole entry, looked up): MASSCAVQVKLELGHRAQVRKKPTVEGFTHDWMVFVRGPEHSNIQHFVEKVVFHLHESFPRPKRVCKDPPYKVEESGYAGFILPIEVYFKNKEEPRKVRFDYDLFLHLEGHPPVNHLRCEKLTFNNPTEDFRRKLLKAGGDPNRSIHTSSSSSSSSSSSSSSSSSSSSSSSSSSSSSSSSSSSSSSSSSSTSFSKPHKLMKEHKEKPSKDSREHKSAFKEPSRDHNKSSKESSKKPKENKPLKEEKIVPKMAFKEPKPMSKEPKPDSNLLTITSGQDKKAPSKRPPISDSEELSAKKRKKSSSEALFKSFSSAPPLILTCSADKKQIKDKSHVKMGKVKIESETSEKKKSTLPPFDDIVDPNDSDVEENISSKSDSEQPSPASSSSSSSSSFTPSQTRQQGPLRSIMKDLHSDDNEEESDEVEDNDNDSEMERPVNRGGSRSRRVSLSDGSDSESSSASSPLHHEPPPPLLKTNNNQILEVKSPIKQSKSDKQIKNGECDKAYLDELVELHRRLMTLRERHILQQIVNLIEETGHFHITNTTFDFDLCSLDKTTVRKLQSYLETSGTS
T cruzi repl: T. cruzi replication inhibition; AID 1885; T. cruzi beta-gal in NIH3T3, luminescence, 90 h; inhibition, % (test concentration not listed); 300,000 tested, 1.4% active;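 active = mean inhibition across valid replicates above about 55%, limit read from the data; inconclusive = mean below that limit but half or more replicates reach it; inactive = mean below it, under half of replicates reach it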;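 note: signal also drops with host cell toxicity which is not excluded here; 0% = plate median of DMSO wells and 100% = zero luminescence signal; higher percent means less beta-gal luminescence so fewer parasites; stock transfer was 50 nL into about 50 µL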
Bfl-1 A1 inh: inhibitors of the anti-apoptotic protein A1, read as caspase activation. MEF A1-2A-BIM cells, Caspase-Glo 3/7 luminescence, 3 h; percent of clofoctol response, vehicle zero. caspase activation, % (no concentration beside the values). 330,000 tested, 0.066% active. AID 2462;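 active = over half of replicate activation scores above 10%, or exactly half above 10 with the replicate mean above 10; inconclusive = replicate mean below 10 yet half the replicates above 10; inactive = over half of replicates below 10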;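 note: wells of about 30 µL received 50 nL stock; many hits fall short of the cut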
LANA-H2A inh: blocks KSHV LANA binding to histone H2A/H2B; Q9QR71; inhibition, % (no concentration beside the values); 320,000 tested, 0.6% active; cell-free LANA-H2A/H2B peptide, fluorescence polarization; in the data active = inhibition mostly above about 10%, no sharp cut-off; inactive = mostly below about 6.7%;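 note: stock transfer was 7.5 nL into about 10 µL; 0% = median of vehicle wells and 100% = median of positive control wells; one replicate is shown; the record names a cut of 25% in any replicate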
Calb FLC: affects C. albicans growth with fluconazole; 300,000 tested, 0.57% active; C. albicans CaCi-2 (fluconazole-resistant clinical isolate) + fluconazole, Alamar Blue growth, 48 h; AID 1979; growth inhibition, % (no concentration beside the values);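 active = most replicates above 75%; inconclusive = exactly half above 75%; inactive = most below 75%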;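 note: all wells also contain fluconazole at 8 µg/ml as a sub-toxic cotreatment; 0% = median of DMSO wells and 100% = median of geldanamycin control wells; wells of about 8 µL received 7.5 nL stock; the first replicate is given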
Starred values were filed as active, the others as inactive; ? = inconclusive; · = no result given.

SMILES	RanGTP-Impb inh	Vif A3G	Beta apoptosis	AF4-AF9 inh	T cruzi repl	Bfl-1 A1 inh	LANA-H2A inh	Calb FLC
Cc1ccsc1C(=O)C1CCCN(Cc2cnc(N3CCCC3)s2)C1 (centres undefined)	-0.8	0%	0	4.4	63*	0.0	1.3	-9
FC(F)(F)c1ccccc1CNCCc1c[nH]c2ccccc12	-9.4	-5%	-2	14	39	0.0	0.8	3
Cc1sc2c(c1C)C(c1cccs1)=NCC(=O)N2CC(=O)NCc1cccs1	1.3	21%	4	8.7	-12	0.6	-0.6	1
O=P(NCc1ccccc1)(Oc1ccccc1)Oc1ccccc1	0.7	·	0	-2.1	1	-0.2	-3.2	-34
O=c1[nH]c(=O)n(-c2ccccc2Cl)c(O)c1C=NCCN1CCCCC1	-0.1	-6%	-4	·	-8	0.5	1.5	-1
O=C(Oc1ccc([N+](=O)[O-])cc1)N1CCC(N2CCCCC2)CC1	-1.6	·	2	-1.0	?	0.4	0.7	-7
CO[C@H]1[C@@H](OC)CC(OC2OC(CO)C(O)C(O)C2O)/C(=C\C#N)[C@@H]1O (some centres undefined)	?	?	-3	-4.2	-6	0.9	0.6	-2
O=[N+]([O-])c1cnc[nH]1	1.9	·	-3	-2.5	-24	1.3	-2.9	-8
COC(=O)C1=C(c2cccc(C#N)c2)C[C@@H]2CC[C@H]1N2C(=O)NCc1ccco1	·	·	-4	-0.1	·	0.1	-3.2	·
O=C1NC(=O)N(CCc2ccc(F)cc2)C(=O)/C1=C/c1cccs1	?	18%	-10	1.3	-7	-0.3	1.7	-7
CC(=O)N1CN2CN(C(C)=O)CC(C(=O)c3ccccc3)(C2)C1	21*	-6%	2	·	-5	1.3	-3.1	4
Cc1ccc2c(c1)CC1(CN2C)C(=O)NC(=O)N(CCc2ccccc2)C1=O (centres undefined)	6.8	-1%	-8	·	-15	0.4	7.6	4
COCCOC(=O)c1c(C)oc2ccc(OC(=O)N(C)C)cc12	?	-4%	-6	·	-2	1.3	-2.3	-3
O=C(O)c1cn(Cc2ccccc2)nc1-c1ccccc1	-3.9	·	1	-1.7	-10	-0.2	0.6	-2
COc1ccccc1OCC#CCN1CCCCCC1	2.9	?	-5	?	-5	0.8	-1.8	-20
CC1=C2C(=O)C3C(CC=C4CC(OC5OC(O)C(O)C(O)C5CO)CCC43C)C2CCC12OC1CC(C)CNC1C2C (centres undefined)	-1.4	32%	-7	0.1	0	0.4	-2.2	2
O=S(=O)(c1ccc(F)cc1)N1CCCCC1c1cccnc1 (centres undefined)	0.8	-12%	2	2.3	6	-0.5	-1.6	5
O=C(O)CC[N+](=O)[O-]	-1.4	·	8	-0.5	4	-2.1	-1.2	·
COc1ccc(S(=O)(=O)N2CC3CC(C2)c2cccc(=O)n2C3)cc1 (centres undefined)	?	0%	-6	-1.6	-10	0.5	2.5	-1
Cc1cccn2c(=O)c3c(nc12)N1CCCCC1C1(C3)C(=O)N(C)C(=O)N(C)C1=O (centres undefined)	5.2	·	7	0.9	9	-1.2	-4.4	-2
COc1cc(C=C2C(=O)NC(=O)NC2=O)ccc1O	3.9	30%	-2	-1.7	7	-0.8	-1.7	1
Cc1ccc(N2C(=O)NC(=O)/C(=C\c3ccc([N+](=O)[O-])o3)C2=O)cc1	-3.0	?	·	·	2	1.1	1.1	6
COC(=O)C1=C(c2ccc(OC(F)(F)F)cc2)C[C@@H]2CC[C@H]1N2C(=O)N1CCCC1	·	·	0	-16	·	0.6	3.4	·
COC(=O)C1=C(c2ccccc2)C[C@@H]2CC[C@H]1N2C(=O)N1CCC(C)CC1	-2.4	·	-7	2.2	-8	0.4	-3.8	-18
CC(Cc1ccccc1)[n+]1cc(/N=C(\N)[O-])on1 (centres undefined)	2.9	-9%	0	·	0	-0.2	-2.1	-3

Following part:
SMILES	RanGTP-Impb inh	Vif A3G	Beta apoptosis	AF4-AF9 inh	T cruzi repl	Bfl-1 A1 inh	LANA-H2A inh	Calb FLC
O=C(O)C(O)(c1ccccc1)C1CCCC1 (centres undefined)	-3.5	8%	·	·	-13	0.0	0.2	-1
CN(C)CCSC1c2ccccc2CSc2ccccc21 (centres undefined)	?	·	-3	11	22	0.1	-0.5	-16
C#C[C@]1(O)CCC2C3C(CC[C@@]21C)[C@@]1(C)CC[C@@H](O)CC1=C[C@H]3O (some centres undefined)	·	-9%	-4	1.4	·	-0.6	3.1	·
CC(=O)N1CC(=O)Nc2ccc(Cl)cc2C1c1ccc(F)cc1 (centres undefined)	?	?	5	-1.2	-14	0.1	-0.1	0
O=c1c2ccccc2nc(/C=C/c2ccc(O)cc2)n1-c1cccc(O)c1	-6.6	9%	11	-0.1	27	-0.1	4.7	-16
O=c1c2ccccc2nc(-c2ccccc2)n1-n1cccc1	-0.6	6%	2	·	6	0.0	12	8
COc1ccc(-n2c(O)c(C(C)=NCC3CCCO3)c(=O)[nH]c2=O)cc1 (centres undefined)	2.4	·	-9	-0.5	-8	-0.2	2.1	-11
O=C(CN1CC=C(c2ccccc2)CC1)NC(=O)NC1CCCCC1	·	-6%	-3	2.2	·	-0.5	-1.0	4
Fc1cccc(C2NCc3ccccc3-n3cccc32)c1 (centres undefined)	-2.6	-1%	-3	16	20	0.6	-4.6	-4
c1ccc(P(c2ccccc2)c2ccccn2)cc1	3.1	1%	-3	0.1	-17	1.2	5.6	-9
Clc1ccc(C2NCCc3[nH]cnc32)cc1 (centres undefined)	2.3	26%	1	17	0	-0.4	-27	-3
Cn1c(=O)cc(SCC(=O)N2CCC3(CC2)OCCO3)c2ccc(Cl)cc21	·	29%	1	·	·	0.1	2.1	·
CC(=O)c1c(O)n(C2CCCCCC2)c(=O)[nH]c1=O	-5.3	10%	-3	·	-11	0.3	-3.3	-4
CC(=O)N(C1=NCCCS1)c1ccccc1F	1.8	9%	-4	·	-9	0.3	-0.5	-17
Nc1ccccc1C(=O)OCC(=O)c1ccc2c(c1)OCCO2	-1.0	7%	2	-0.8	-6	-7.4	-8.5	-1
COCCNC(=O)c1c(NC(=O)c2ccco2)n(Cc2ccccc2)c2nc3ccccc3nc12	31*	12%	-20	·	15	-0.7	0.2	?
CCn1cc(C=C2C(=O)N(C)C(=O)N(C)C2=O)c2ccccc21	4.3	-18%	·	3.1	11	1.0	-1.1	1
Cc1ccccc1-n1c(O)c(/C=C2/C(c3ccccc3)=Nc3ccccc32)c(=O)[nH]c1=O	-3.3	·	15	2.1	-6	-0.3	-0.6	-3
COC(=O)C(O)(c1c[nH]c2ccccc12)C(F)(F)F (centres undefined)	-0.4	0%	-1	·	-5	0.3	3.4	-4
CN(CCc1ccccc1)Cc1ccccc1[N+](=O)[O-]	5.8	3%	-2	·	25	-0.2	0.9	-2
COc1ccccc1OCCCn1cc(C(=O)c2ccco2)c2ccccc21	-0.2	-3%	2	·	29	-0.3	3.6	0
O=C(O)C(Cl)Cl	0.8	·	3	·	25	0.1	-11	·
COc1ccc(CCC(=O)N2C[C@H]3C[C@@H](C2)c2cccc(=O)n2C3)cc1	3.8	·	·	-1.7	-7	-0.6	1.3	-7
COC(=O)C1=C(c2ccc(OC)c(OC)c2)C[C@@H]2CC[C@H]1N2C(=O)NCCO	·	·	-8	-7.7	·	0.0	1.6	·
O=c1[nH]c(CN2CC=C(c3ccccc3)CC2)nc2scc(-c3cccs3)c12	-1.5	-9%	-1	1.2	2	0.0	2.5	5

(next part)
SMILES	RanGTP-Impb inh	Vif A3G	Beta apoptosis	AF4-AF9 inh	T cruzi repl	Bfl-1 A1 inh	LANA-H2A inh	Calb FLC
COc1ccc(-n2c(Cc3cccc([N+](=O)[O-])c3)nc3ccccc3c2=O)cc1	-1.7	0%	2	13	3	0.6	1.0	0
O=c1[nH]c(=O)n(-c2cccc3ccccc23)c(O)c1C=NCc1ccc2c(c1)OCO2	-4.1	4%	-2	·	-8	0.1	0.2	6
CCCCCn1c(=O)c(C(=O)Nc2ccccn2)c(O)c2ccccc21	1.8	-1%	·	-0.7	-7	0.1	-1.3	-1
Cc1ccc(C)c(CN2CCC(n3nnc4cc(F)ccc43)CC2)c1	-2.5	-1%	8	·	40	0.0	1.5	-24
c1ccc(NC2=NCCCS2)cc1	-0.2	-1%	-1	-1.9	8	0.1	2.6	-1
Cn1c(O)c(C=Nc2ccc(Cl)cc2)c(=O)n(C)c1=O	-7.5	-5%	3	·	-7	0.4	6.1	2
CCOC(=O)c1[nH]c2ccc(OC)cc2c1C(SCC(=O)O)c1ccc(C(F)(F)F)cc1 (centres undefined)	-5.4	-2%	-8	-1.1	-2	?	2.6	68
O=C(O)C1CSC(c2cccnc2)N1 (centres undefined)	4.6	5%	0	·	-2	-0.3	5.4	2
c1ccc2c(CN3CCCCCCC3)c[nH]c2c1	-1.6	-5%	104*	·	70*	0.7	-0.6	-4
CC(C)(C)n1cccc1/C=C1\C(=O)NC(=O)N(c2ccccc2)C1=O	2.4	-1%	·	·	-7	-0.3	2.1	3
COc1ccc(-n2c(O)c(C=NCCN(C)C)c(=O)[nH]c2=O)cc1	0.8	87%	-5	-0.2	-12	1.6	-0.4	-5
Cc1c(NP(=O)(C(C)(C)C)C(C)(C)C)c(=O)n(-c2ccccc2)n1C	-0.6	4%	·	0.4	-18	0.4	-2.2	-1
COC(=O)C1=C(c2ccc(OC)c(OC)c2)C[C@@H]2CC[C@H]1N2C(=O)NCCOc1ccccc1Cl	·	·	-9	2.4	·	-0.1	-6.2	·
COC(=O)C1=C(c2ccc(C(C)=O)cc2)C[C@@H]2CC[C@H]1N2C(=O)N1CCC(C)CC1	·	·	0	-1.1	·	0.2	0.6	·
COc1ccc(C=O)cc1O	-2.7	5%	-3	·	-12	0.4	-1.1	0
OC1CCCCC1N1CCC(c2ccccc2)CC1 (centres undefined)	3.3	27%	-3	-1.4	13	0.0	-7.0	·
CC(C)n1c(=O)c(C=Nc2ccc(Br)cc2)c(O)n(Cc2ccco2)c1=O	-2.2	·	1	0.2	-5	-0.3	-1.0	-15
Cc1cc(/C=C2/C(=O)NC(=O)N(Cc3ccco3)C2=O)c(C)n1-c1ccccc1	-2.4	·	-5	·	-9	0.2	-3.5	3
O=C1NC(=S)N(c2ccc(F)cc2)C(=O)/C1=C/c1ccco1	-3.0	·	·	·	-2	-0.1	-0.6	1
COc1cc2[nH]c(=O)n(-c3cccc(Cl)c3)c(=O)c2cc1OC	-2.7	-1%	-1	·	3	-2.4	3.6	2
O=C1NC(=O)[C@]2(Cc3ccccc3N3CCN(c4ccccc4)CC32)C(=O)N1Cc1ccccc1 (some centres undefined)	-2.4	6%	0	·	5	0.1	-4.1	14
CN1C(=O)C(=Cc2ccc(N3CCOCC3)c([N+](=O)[O-])c2)C(=O)N(C)C1=O	-1.4	18%	-3	·	-20	1.1	-1.2	10
O=c1[nH]c(=O)n(Cc2ccccc2)c(O)c1C=NCCN1CCNCC1	-2.6	67%	-2	·	-24	-1.0	-1.7	1
C[N+]1(C)C2CC(OC(=O)[C@H](CO)c3ccccc3)CC1C1OC12 (some centres undefined)	·	·	-5	-3.7	·	-1.2	-5.6	·
Cc1ccccc1Cc1c(C)nc2nc(SCC(=O)N3CCC4(CC3)OCCO4)nn2c1C	2.7	-4%	1	·	17	-0.4	-1.2	2
C=C[C@H]1CN2CC[C@H]1C[C@H]2[C@H](O)c1ccnc2ccccc12	·	·	-1	-4.1	·	-0.9	-0.6	·
CN1C(=O)CC(c2ccccc2)Nc2ccccc21 (centres undefined)	-3.0	8%	-6	3.6	8	1.7	4.6	3

Not all compounds are listed; count on the stated rates, not on these rows.
